Screening results: PubChem BioAssay, several laboratories
RecA splice inh – blocks M. tuberculosis RecA intein splicing; P9WHJ3; inhibition, %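 (about 9 µM by stock and volumes)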; 290,000 tested, 0.75% active; cell-free RecA intein splicing, fluorescence; AID 2221; in the data active = inhibition above about 30%;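 note: 0% = vehicle wells and 100% = reference inhibitor control wells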
Target sequence (P9WHJ3 whole entry, looked up, canonical isoform): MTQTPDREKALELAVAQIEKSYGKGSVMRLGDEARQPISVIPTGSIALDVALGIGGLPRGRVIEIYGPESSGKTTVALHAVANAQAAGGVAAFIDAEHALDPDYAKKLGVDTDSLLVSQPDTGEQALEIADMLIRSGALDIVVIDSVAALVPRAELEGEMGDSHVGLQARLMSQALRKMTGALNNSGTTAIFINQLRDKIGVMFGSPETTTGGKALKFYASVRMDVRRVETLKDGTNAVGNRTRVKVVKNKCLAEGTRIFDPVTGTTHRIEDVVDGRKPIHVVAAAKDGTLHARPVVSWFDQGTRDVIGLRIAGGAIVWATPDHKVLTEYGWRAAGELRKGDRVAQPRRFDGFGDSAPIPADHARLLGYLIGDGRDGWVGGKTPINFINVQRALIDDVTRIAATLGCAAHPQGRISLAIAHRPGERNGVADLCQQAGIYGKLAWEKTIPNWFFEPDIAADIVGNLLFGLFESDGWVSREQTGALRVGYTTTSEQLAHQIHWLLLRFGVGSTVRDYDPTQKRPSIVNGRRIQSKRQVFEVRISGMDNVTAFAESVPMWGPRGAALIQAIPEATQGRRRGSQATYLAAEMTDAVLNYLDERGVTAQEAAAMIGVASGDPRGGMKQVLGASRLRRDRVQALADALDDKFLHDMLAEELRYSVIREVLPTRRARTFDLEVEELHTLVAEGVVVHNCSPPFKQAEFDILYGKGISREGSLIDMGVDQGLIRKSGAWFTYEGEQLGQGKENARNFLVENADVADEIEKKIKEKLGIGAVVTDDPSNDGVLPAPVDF
YopH PTP inh – YopH (Yersinia) phosphatase inhibition | fluorescence Ex485/Em525 | inhibition, %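 (about 10 µM by stock and volumes)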 | 140,000 tested, 0.16% active | AID 898;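 active = inhibition of 50% or more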;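 note: controls were vehicle for no effect and minimum signal wells for full effect; inactives centre near -20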
Mtb bLac sens – beta-lactam sensitization of Mtb H37Rv; 330,000 tested, 0.27% active; M. tuberculosis H37Rv growth with meropenem, percent inhibition; hits of this screen are not shown here; inhibition, % at 25 µM; AID 434955;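 active = about 74% or more and at least 40 points above the plate without the antibiotic, then above 30% in a dose series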;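 note: growth measured after seven days incubation then overnight dye step; 0% = bacteria only wells and 100% = bacteria with antibiotic; twin plates without the antibiotic show which effects depend on it; some results filed as inactive read as strong as hits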
Arbovirus anti – arbovirus infection inhibition; inhibition, % at 10 µM; 200,000 tested, 0.37% active; arbovirus infection cell-based antiviral screen;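 active = inhibition from about 30%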;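 note: bluetongue infection of BSR cells; cell survival read as ATP light after 72 h; 0% = infected wells without compound and 100% = uninfected wells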
Mtb H37Rv – M. tuberculosis H37Rv growth inhibitors, H37Rv strain (AID 1626); M. tuberculosis H37Rv growth inhibition; higher % means a stronger effect; inhibition, % at 10 µM, or IC50 in µM where a hit was titrated; 220,000 tested, 0.95% active;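 active = confirmed in a dose series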;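 note: bacteria incubated seven days before Alamar blue readout; 0% = bacteria only wells and 100% = bacteria with antibiotic wells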
Arbovirus anti repeat – recorded beside Arbovirus anti, whose call it bears; inhibition, %; measured here: 10K subset replicate screen; many hits read low in the repeat;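 first of two repeat runs on a subset; 0% = infected and 100% = uninfected wells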
* = called active by the depositor; . = no result given.

SMILES	RecA splice inh	YopH PTP inh	Mtb bLac sens	Arbovirus anti	Mtb H37Rv	others
CC1=CCC2(CO)COC(c3ccccc3O)C1C2 (stereo unspecified)	-0.7	-35	2	-8	2%
COc1cc(C(=O)NNC(=O)c2ccccc2Br)ccc1OCC(=O)N1CCOCC1	-1.3	.	1	.	.
CCCC(c1nnnn1CC1CCCO1)N1CCN(c2cc(Cl)ccc2C)CC1 (stereo unspecified)	5.8	9	-7	-19	-7%
COc1cc(NC(=O)C2CCCN(S(=O)(=O)c3ccc4c(c3)CCCN4C(C)=O)C2)cc(OC)c1 (stereo unspecified)	-0.3	.	7	.	.
COc1ccc(/C=c2\s/c(=C(/C#N)C(=O)NCc3ccco3)n(-c3ccccc3)c2=O)cc1	0.4	-27	-2	-17	-1%
COc1ccc(C(=O)NC2CC2)cc1OC1CCN(Cc2ccc(F)cc2)CC1	0.5	.	-7	.	.
CCC(C)/C(C)=N/NC(=O)c1ccccc1OCCOc1ccccc1 (stereo unspecified)	7.4	.	7	2	3%
COc1ccc(C(=O)N2CCC(n3c(C)nc4cc(F)ccc43)CC2)cc1	-1.6	.	3	20	6%
CCN(CC)S(=O)(=O)c1cccc(C(=O)OCC(=O)C23CC4CC(CC(C4)C2)C3)c1	-1.6	-50	4	10	1%
Cc1cc(C)cc(OCC(=O)Nc2cccc(-c3nnc(-c4ccco4)o3)c2)c1	-3.2	9	4	-2	2%
Cc1ccc(S(=O)(=O)NC(=O)COc2ccc([N+](=O)[O-])cc2)cc1	-2.2	.	-11	.	.
CCOC(=O)c1ccc(NC(=O)C2CC(=O)Nc3nc4ccccc4n32)cc1 (stereo unspecified)	-1.4	.	1	-6	5%
CC(C)NC(=O)c1cc2c(=O)n3ccccc3nc2s1	-1.0	.	-4	.	.
Cc1ccc(C(=O)CSc2nnc(CNc3ccc(C)cc3C)o2)cc1	-4.4	-19	-11	11	-8%
CCN(CC)Cc1c(C(=O)OC(C)C)nnn1-c1nonc1N	-1.1	-33	-8	3	0%
O=C(N/N=C/c1cccnc1)c1cccs1	-1.7	.	-8	.	-5%
CC(=O)Nc1ccc2nc(SCC(=O)N3CCOCC3)sc2c1	-2.8	.	2	5	5%
CCCSc1nnc(-c2c[nH]c3ccccc23)n1C	-7.0	.	6	-2	-8%
COC(=O)C(C)NC(=O)C1CCCN1S(=O)(=O)c1cc(C)c(Cl)cc1C (stereo unspecified)	-1.2	-37	-12	0	-1%	Arbovirus anti repeat=2
CCc1ccc(OCCNC(=O)c2ccc(S(=O)(=O)N(C)C)cc2)cc1	-0.2	-11	.	4	1%
Cc1cc(C)nc(-n2ncc3c2CC(c2ccccc2C)CC3=O)n1 (stereo unspecified)	0.9	-28	0	6	-4%
O=C(C1CCN(C2CCN(C/C(Cl)=C/c3ccccc3)CC2)CC1)N1CCOCC1	-0.2	.	-9	-5	-11%
CCOC(=O)c1c(NC(=O)COc2ncnc3ccccc23)sc(C)c1CC	4.6	-3	3	13	15%
CCCCC1=CC2=CC(=O)C(C)(OC(=O)CC)C(=O)C2=CN1CCN1CCOCC1 (stereo unspecified)	-9.3	.	-3	.	2%
CCCC1CCC(C2=N/C(=C\c3ccc(OC)c(OC)c3)C(=O)O2)CC1 (stereo unspecified)	10	-23	97	-1	20%
COc1cc(/C=C(\C#N)c2nc3c(s2)CCCC3)ccc1O	-4.5	-14	85	-13	-5%
CCOC(=O)c1cc(C#N)c(SCc2ccc(C#N)cc2)nc1C	4.4	-36	0	-4	-8%
COc1ccc(CC(=O)NCCN2CCCC2)cc1	2.3	3	-9	3	-8%
COc1ccc(C(=O)c2ccc(OC)c3cccc(O)c23)cc1OC	-4.6	-22	-11	0	1%
O=C(/C=C/c1ccc([N+](=O)[O-])cc1)NNC(=O)C1CC1	-3.9	.	21	6	-1%

Some of these compounds in order of SMILES length, smallest number first:
SMILES	RecA splice inh	YopH PTP inh	Mtb bLac sens	Arbovirus anti	Mtb H37Rv	others
COc1cc(/C=C(\C#N)c2nc3c(s2)CCCC3)ccc1O	-4.5	-14	85	-13	-5%
CCOC(=O)c1c(NC(=O)COc2ncnc3ccccc23)sc(C)c1CC	4.6	-3	3	13	15%
COC(=O)C(C)NC(=O)C1CCCN1S(=O)(=O)c1cc(C)c(Cl)cc1C (stereo unspecified)	-1.2	-37	-12	0	-1%	Arbovirus anti repeat=2

Molecules shown so far that have a furan ring, fused or not:
SMILES	RecA splice inh	YopH PTP inh	Mtb bLac sens	Arbovirus anti	Mtb H37Rv	others
COc1ccc(/C=c2\s/c(=C(/C#N)C(=O)NCc3ccco3)n(-c3ccccc3)c2=O)cc1	0.4	-27	-2	-17	-1%
Cc1cc(C)cc(OCC(=O)Nc2cccc(-c3nnc(-c4ccco4)o3)c2)c1	-3.2	9	4	-2	2%

Returning to the listing, repeating the 6 entries before the break.
SMILES	RecA splice inh	YopH PTP inh	Mtb bLac sens	Arbovirus anti	Mtb H37Rv	others
CCCC1CCC(C2=N/C(=C\c3ccc(OC)c(OC)c3)C(=O)O2)CC1 (stereo unspecified)	10	-23	97	-1	20%
COc1cc(/C=C(\C#N)c2nc3c(s2)CCCC3)ccc1O	-4.5	-14	85	-13	-5%
CCOC(=O)c1cc(C#N)c(SCc2ccc(C#N)cc2)nc1C	4.4	-36	0	-4	-8%
COc1ccc(CC(=O)NCCN2CCCC2)cc1	2.3	3	-9	3	-8%
COc1ccc(C(=O)c2ccc(OC)c3cccc(O)c23)cc1OC	-4.6	-22	-11	0	1%
O=C(/C=C/c1ccc([N+](=O)[O-])cc1)NNC(=O)C1CC1	-3.9	.	21	6	-1%
COc1ccc(N2CCN(Cc3cc(=O)oc4ccc5ccccc5c34)CC2)cc1	-2.6	-30	69	-4	-1%
COC(=O)[C@@]1(Cc2ccc(F)cc2)[C@H]2c3cc(C(=O)N(C)C)[nH]c3C[C@H]2CN1C(=O)c1ccccc1	.	-21	-12	12	-8%
CCC(Sc1nc2ccncc2[nH]1)C(=O)Nc1cc(Cl)ccc1C (stereo unspecified)	2.6	.	-11	.	.
CCCCCCC(=O)N=Nc1c(O)[nH]c2ccc([N+](=O)[O-])cc12	0.9	-1	0	11	1%
Cc1ccc2oc(-c3cccc(NC(=S)NC(=O)/C=C/c4ccco4)c3)nc2c1	4.9	-25	24	-13	2%
CCOC(=O)CNS(=O)(=O)c1cc(-c2nn(C)c(=O)c3ccccc23)ccc1C	-0.3	-26	0	-7	1%
CC(C)NC(=O)c1onc(CSc2cccc(F)c2)c1C(=O)O	-0.3	-62	36	10	-9%
CCc1cccc(C)c1NC(=O)COC(=O)c1ccc2c(c1)S(=O)(=O)c1ccccc1C2=O	-0.4	16	3	5	-7%
COc1ccc(Nc2nccc3c2ncn3C)cc1	-1.4	.	-3	.	.
COc1ccc(CN(C)c2ncnc(N)n2)cc1	-1.6	-3	-2	1	6%
CC(C)(C)NC(=O)c1cc(-c2ccccc2)n[nH]1	0.2	.	-9	-7	-1%
CC(=O)c1cccc(Nc2nc(-c3cccnc3)cs2)c1	4.1	.	94	.	.
Cc1c(C(=O)N2CCOCC2)c(S(=O)(=O)Nc2ccc(F)cc2)c(C)n1C	0.5	.	-3	.	.
O=C(NCc1ccc(F)cc1)c1ccc[nH]1	-4.7	.	-3	-1	2%
COC(=O)c1cnn(C(=O)c2ccccc2Br)c1N	0.1	-5	-15	4	-4%

In the list so far, these contain a nitro group on carbon.
SMILES	RecA splice inh	YopH PTP inh	Mtb bLac sens	Arbovirus anti	Mtb H37Rv	others
Cc1ccc(S(=O)(=O)NC(=O)COc2ccc([N+](=O)[O-])cc2)cc1	-2.2	.	-11	.	.
O=C(/C=C/c1ccc([N+](=O)[O-])cc1)NNC(=O)C1CC1	-3.9	.	21	6	-1%
CCCCCCC(=O)N=Nc1c(O)[nH]c2ccc([N+](=O)[O-])cc12	0.9	-1	0	11	1%

Going on with the list.
SMILES	RecA splice inh	YopH PTP inh	Mtb bLac sens	Arbovirus anti	Mtb H37Rv	others
O=c1c2c(nc3cc(-c4cccc(F)c4)[nH]n13)CCC2	-0.1	.	1	-5	4%
Cc1ccc(NC(=O)c2cccs2)cc1[N+](=O)[O-]	-3.2	.	66	-7	4%
Cc1sc(NC(=O)c2ccccc2)c(C(c2ccccn2)N2CCN(CCO)CC2)c1C (stereo unspecified)	3.4	-34	-8	-7	6%
CCC(C)N1CCN(S(=O)(=O)c2ccc3ccccc3c2)CC1 (stereo unspecified)	-1.4	.	-4	.	.
CC(=O)c1sc(Nc2cccc3ccccc23)nc1C	2.1	.	15	.	.
COC(=O)c1sccc1NC(=O)CSCC(=O)O	0.2	.	-3	9	0%
Cc1cccc(NC(=O)C2CCN(S(=O)(=O)c3cccc4cccnc34)CC2)n1	1.1	-23	-6	4	-6%	Arbovirus anti repeat=2
CC(C)(C)c1nc(Sc2ncccc2[N+](=O)[O-])n[nH]1	-23	.	-4	.	4%
CC1CC(C)CN(CCCNC(=O)c2ccc3c(c2)NC(=O)CS3)C1 (stereo unspecified)	1.2	.	7	.	.
COc1ccccc1CC(=O)Nc1nc(-c2ccc(F)c(F)c2)cs1	9.9	.	65	.	.
COc1ccc(/C(C)=N/NC(=O)C2C3CCCCC32)c(OC)c1 (stereo unspecified)	3.1	-17	-2	2	3%
COc1ccc(C=C(C#N)C#N)c(CSc2ccccn2)c1	4.1	.	1	.	.
CCOC(=O)COc1ccc2c(c1)C(=O)CC(C)(c1cccnc1)O2 (stereo unspecified)	-8.6	-7	99	3	21%
CNc1nc(C)c(C(=O)c2ccc(Cl)cc2)s1	-2.0	-14	2	1	11%
COc1cc(NC(=O)c2cccc(Cl)c2)ccc1NC(=O)c1cccs1	-6.8	.	-5	14	6%
O=C(O)CCCCCNc1ccc2nsnc2c1[N+](=O)[O-]	3.0	3	4	5	-9%
COc1ccc(CNC(=S)NNC(=O)c2cc3ccccc3o2)cc1	5.7	.	5	.	.
CCN1C(=O)[C@@H]2[C@@H](c3ccc(SC4CCCCC4)cc3)N3CCCC[C@@]3(C(=O)OC)[C@@H]2C1=O	2.4	.	2	.	.
Cc1ccc(C(=O)Nc2ccc(C(=O)N3CCCCC3)cc2)o1	-3.7	.	2	.	.
Cc1cc(C)nc(SCC(=O)Nc2ccc(S(=O)(=O)N3CCCCC3)cc2)n1	0.1	-4	-4	4	-5%
CC(=O)c1cc(N2CCOCC2)ccc1[N+](=O)[O-]	3.1	.	.	-3	-7%
CSc1ccccc1NC(=O)NCCCl	0.2	.	-8	3	5%
CN(C)C(=O)COC(=O)c1ccc(S(=O)(=O)NCc2ccco2)cc1	0.7	.	-4	.	-4%
C=CCNC(=O)CC(C)C(CCCCC)C(=O)O (stereo unspecified)	-2.3	-45	-14	2	-7%
CCOC(=O)c1cnc2cc(-c3ccc(Cl)cc3)nn2c1N	0.1	-18	1	12	4%
CN(c1ccccc1)c1ccc(/C=C/[N+](=O)[O-])cc1	0.8	-16	100	-35	14%
COC(=O)Nc1c(-c2ccccc2)nc2ccc(Cl)cn12	-0.2	.	-1	.	.

An excerpt (hit frequency here may not be typical).
